Screens (PubChem BioAssay)
PINK1 expr mod: changes PINK1 expression; PINK1 immunofluorescence, high-content cytometry, 24 h; Potency, µM (highest dose often 76.6 µM), inactives show at the top dose activation (PINK1 increase), most hits filed as activators; hit rate 0.2% among 410,000; AID 624263; active = well fitted activation curve with a large enough effect; inconclusive = small, poorly fitted or top-dose-only effect; inactive = flat fitted curve, though single readings scatter; cell line not stated here;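 also: % of control where 0% means no effect; nearly all actives have a fitted effect of over 65% in size; a mitochondrial uncoupler was the plate control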
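Stable cell line, 250 cells/well, 12 h attachment; compounds pinned at 5 concentrations, 24 h; CCCP control. Fixed with nuclear dye, primary antibodies 12 h at 10 degrees C, secondary plus cell stain; laser-scanning cytometer read.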
Numbers without * were called inactive; & = joins results of further samples. Potency is read from the fitted curve at half-maximal effect. An excerpt; the hit share may differ from the screen's.

The opening 5 records as a preview:
SMILES | PINK1 expr mod
COCCCNC(=O)CCCn1c(=O)c2cccn2c2ccccc21 | -0.5%
COc1cc(-c2noc(-c3cc4cccc(C)c4oc3=O)n2)cc(OC)c1OC | -1.3%
CCOc1ccccc1NC(=O)c1c(NC(=O)Cc2ccc(OC)cc2)sc2c1CCC2 | 1.0%
COc1ccc(CNC(=O)c2ccc(N3CCCC3)c(NC(=O)NCc3ccc(C)cc3)c2)cc1 | 0.2%
CCN(C(=O)c1cn(CC)c(=O)c2cc(OC)c(OC)cc12)c1ccccc1F | 0.0%

The listing, repeating the preview:
SMILES | PINK1 expr mod
COCCCNC(=O)CCCn1c(=O)c2cccn2c2ccccc21 | -0.5%
COc1cc(-c2noc(-c3cc4cccc(C)c4oc3=O)n2)cc(OC)c1OC | -1.3%
CCOc1ccccc1NC(=O)c1c(NC(=O)Cc2ccc(OC)cc2)sc2c1CCC2 | 1.0%
COc1ccc(CNC(=O)c2ccc(N3CCCC3)c(NC(=O)NCc3ccc(C)cc3)c2)cc1 | 0.2%
CCN(C(=O)c1cn(CC)c(=O)c2cc(OC)c(OC)cc12)c1ccccc1F | 0.0%
CC(C)Cn1c(=O)c2sccc2n2c(CCCC(=O)Nc3ccc(Cl)cc3)nnc12 | 0.5%
Cc1cc(C)cc(N2CCn3c2nc2c3c(=O)n(CCCc3ccccc3)c(=O)n2C)c1 | 0.9%
O=C(NCCc1ccc(Cl)cc1)c1cnc2sc(N3CCOCC3)nn2c1=O | 2.5%
Cc1ccc2[nH]c(=O)c(CN(Cc3ccccc3)Cc3nnnn3Cc3ccccc3)cc2c1 | 3.7%
Cc1ccc(CN2C[C@H](Sc3ccccn3)C[C@H]2C(=O)Nc2ccc3sc(C)nc3c2)c(C)c1 | 0.3%
CCCCC(=O)Nc1ccc(OCc2cc(=O)n3ccc(C)cc3n2)cc1 | -0.5%
Cc1ccc(C)c(Cn2c(=O)n(Cc3ccco3)c(=O)c3oc4ccccc4c32)c1 | 0.4%
Cc1cc(Br)ccc1NC(=O)C1CCN(S(=O)(=O)c2cccc3nsnc23)CC1 | 0.1%
COc1cc(Nc2nc(SCc3ccccc3Cl)nc3ccccc23)cc(OC)c1 | 6.3%
CCOc1ccc(CCNC(=O)CCCn2nc(C)c3sc4ccccc4c3c2=O)cc1 | 0.9%
Cc1cccc(CNC(=O)C2CCN(c3nc4ccc(Cl)cc4[nH]3)CC2)c1 | -1.6%
O=C(NCC(c1cccnc1)N1CCN(c2ccccc2F)CC1)C(=O)Nc1ccc(F)cc1F (stereo unspecified) | 1.0%
CCOC(=O)c1[nH]c2c(c1Cc1ccccc1)C(=O)CC(c1ccccc1)C2 (stereo unspecified) | -0.3%
COC(=O)c1c(NC(=O)CCCOc2ccccc2)sc2c1CCC(C)C2 (stereo unspecified) | -1.3%
COc1cccc(C(=O)Nc2nc3nc(C)c(Cc4ccccc4)c(=O)n3[nH]2)c1 | -0.4%
CCn1cc2nc(SCc3cccc(C(F)(F)F)c3)n(CCc3ccccc3)c(=O)c2n1 | 11%
CCc1nn(CC(=O)N2CCN(c3cccc(C)c3)C(C)C2)c(=O)c2cc3sccc3n12 (stereo unspecified) | 1.2%
COC(=O)c1cc(S(=O)(=O)N2CCN(c3cc(Cl)ccc3C)CC2)c[nH]1 | 3.0%
COc1ccc(CNc2nc(Cl)nc3nc[nH]c23)cc1 | -0.3%&-0.5%
COC(=O)c1ccccc1NC(=O)c1cc(-c2ccc(Cl)cc2)on1 | -0.4%

Remaining list, next part:
SMILES | PINK1 expr mod
Cc1ccc(-n2c(=O)[nH]c3sc4c(c3c2=O)CCCC4)cc1 | 3.3%
Cc1nnc(N2CCC(C(=O)NCc3ccc(N(C)C)cc3)CC2)c2nn(-c3ccccc3)c(C)c12 | 3.5%
O=C(Cn1c(-c2cccs2)cc2ccccc21)NCCCN1CCN(c2cccc(Cl)c2)CC1 | 0.5%
CN1CCN(c2ccc(-c3nc(-c4ccccc4)no3)cc2[N+](=O)[O-])CC1 | 0.1%
COc1ccc2oc(-c3ccc(C)c(NC(=O)c4cccnc4)c3)nc2c1 | 0.0%
O=C1CC(c2nc(-c3ccccc3)no2)CN1c1ccccc1 (stereo unspecified) | 1.0%
Cc1ccc(S(=O)(=O)N2CCC(c3ccncc3)CC2)c(C)c1 | -1.0%
CCOc1cccc2sc(NC(=O)c3ccc(S(=O)(=O)N4CCCc5ccccc54)cc3)nc12 | 13%
O=C(Nc1cccc(C(F)(F)F)c1)c1cc(-c2ccc(Cl)cc2)on1 | 13%
COc1cc(CNC(=O)c2sc3ncccc3c2-n2cccc2)cc(OC)c1OC | 0.1%
Cc1ccc(NC(=O)Cn2nc(-c3ccccc3)nc(Cc3ccccc3)c2=O)cc1 | -0.3%
CCOC(=O)c1cccc(NC(=O)N2CC=C(c3c[nH]c4ccccc34)CC2)c1 | 1.2%
CCOC(=O)c1cccc(NC(=O)C(Cc2ccccc2)NS(=O)(=O)c2cccc3nsnc23)c1 (stereo unspecified) | 5.0%
CCOC(=O)C1=C(C)NC(=O)NC1c1cn(-c2ccccc2)nc1-c1ccc(OC(C)C)cc1 (stereo unspecified) | 22%
CCOC(=O)c1c(C)oc2ccc(N(C(=O)Oc3ccccc3)S(=O)(=O)c3ccccc3)cc12 | 2.5%
Cc1ccc(NC(=O)NCc2cccn2Cc2ccccc2)c(C)c1 | 2.7%
Cn1c(=O)n(C)c2cc(NS(=O)(=O)c3ccc(F)cc3)c(NCc3ccccc3)cc21 | 1.5%
CC(C)(C)c1ccc(-c2nc(SCCOc3ccc(Cl)cc3)n3[nH]c(=O)cc3n2)cc1 | 5.5%
CC(C)(C)c1ccc(S(=O)(=O)NCc2ccc3c(c2)CCN3C(=O)c2ccccc2)cc1 | -0.8%
COc1ccc(CC(=O)N2CCc3cc(OC)c(OC)cc3C2COc2ccc(F)cc2)cc1OC (stereo unspecified) | -1.9%
COc1ccc(-c2cc(C(F)(F)F)n3nc(C(=O)NCC45CC6CC(CC(C6)C4)C5)cc3n2)cc1OC | 0.2%
Cc1ccc(CSc2nc3ccccc3c3nc(CCn4c(C)nc5ccccc54)nn23)cc1 | 0.2%
CC1=C(c2ccc(C)cc2)S(=O)(=O)NC1=NCCCN1CCN(c2cc(C)ccc2C)CC1 | 2.1%
CCCN1CCc2nc(N3CCN(c4ncccn4)CC3)ncc2C1 | 1.2%
Cc1cc(=O)oc2c3c(ccc12)OCN(Cc1ccc(Cl)cc1)C3 | 0.1%

Additional results.
SMILES | PINK1 expr mod
Cc1cc(C)n(CC(=O)Nc2ccc(F)c(F)c2)c(=O)c1C#N | 0.2%
CCOC(=O)C(CC)Sc1nnc2[nH]c(=O)cc(C)n12 (stereo unspecified) | 25%
Cc1ccc(-n2nc3c(N4CCC(C(=O)NCCC(C)C)CC4)nnc(C)c3c2C)cc1 | 0.1%
CC(C)c1ccc(NC(=O)N2c3ccccc3Sc3ccccc32)cc1 | 2.9%
O=C(CC1N=C2c3ccccc3N=C(SCc3ccc(F)cc3)N2C1=O)NCc1ccc2c(c1)OCO2 (stereo unspecified) | -0.1%
CCCCC(=O)Nc1cc(-c2cn3cccnc3n2)ccc1C | 1.6%
Cc1cc(C)c2c(=O)cc(C(=O)Nc3ccc(C)c(Cl)c3)oc2c1 | 4.7%
CCc1ccc(CN(C(=O)c2cc(=O)c3ccc(C)cc3o2)C2CCS(=O)(=O)C2)cc1 (stereo unspecified) | -0.5%
COc1ccc2nc(N3CCN(C(=O)C4CC4)CC3)sc2c1 | 0.5%
CCc1ccc(-n2nnc(-c3nc(-c4ccc(C)cc4)no3)c2N)cc1 | 0.3%
Cc1c(Cl)cccc1NC(=O)CSc1nc(=O)n(Cc2ccccn2)c2c1CCC2 | -0.3%
O=C(Cn1cc(SCc2ccc(C(F)(F)F)cc2)c2ccccc21)N1CCOCC1 | 2.2%
O=C(NCc1ccc2c(c1)CCN2C(=O)c1ccccc1)c1ccc(Br)o1 | 0.3%
CCc1ccc(CNC(=O)c2c3c(nc4ccccc24)C(=O)N(C2CCCCC2)C3)cc1 | 0.8%
Cc1ccc(C(=O)Nc2nc3nc(C)cc(=O)n3[nH]2)cc1 | 1.2%
COc1ccc(C(=O)Nc2ccc(-c3cc(C(F)(F)F)nn3-c3ccccc3)cc2)cc1OC | 4.8%
O=C(CNS(=O)(=O)c1cccs1)N1CCN(c2cccc(C(F)(F)F)c2)CC1 | -4.3%
COC(=O)c1ccc(C2C=C(c3ccc(Cl)cc3)Nc3nc4ccccc4n32)cc1 (stereo unspecified) | 5.7%
COC(=O)c1ccccc1NC(=O)c1cc2nc(-c3ccc(OC)cc3)cc(C(F)(F)F)n2n1 | -1.4%
Cc1nc(-n2nc(C)c(Cc3ccc(Cl)cc3)c2C)sc1C(=O)N1CCCCC1C (stereo unspecified) | 0.3%
CC(=O)C1=C(c2ccc(F)cc2)N(C(C)=O)n2c(nnc2C2CCCCC2)S1 | 2.7%
COc1ccc(-c2nn(-c3cccc(F)c3)c3c2cnc2cc(OC)c(OC)cc23)cc1 | 0.8%
COc1cc(NC(=O)CSc2ncc3c(n2)-c2ccc(Cl)cc2N(Cc2ccccc2)S3(=O)=O)cc(OC)c1 | 1.3%
O=C(NC1CCCC1)c1ccc2c(c1)N(Cc1ccccc1)C(=O)c1ccccc1S2 | 0.9%
O=C(CCc1nc(CN2CCN(S(=O)(=O)c3ccc(Br)cc3)CC2)no1)N1CCCCC1 | -0.7%

(list continues)
SMILES | PINK1 expr mod
Cc1c(C(=O)Nc2cccc(Cl)c2)oc2ccc(S(=O)(=O)N3CCCCCC3)cc12 | -0.8%
COc1ccc(Cl)cc1NC(=O)c1sc2nc3c(cc2c1N)CN(C)CC3 | 0.1%
CCOc1ccc(NC(=O)c2cc3c(n(-c4ccc(OC)cc4)c2=O)CC(C)(C)CC3=O)cc1 | 0.2%
COc1ccc(NC(=O)c2c(NCc3ccc(OC)c(OC)c3OC)sc3c2CCC3)c(OC)c1 | 2.1%
COc1ccc(-c2c(C)c3cc(OC(=O)N4CCOCC4)ccc3oc2=O)cc1OC | 11%
COc1cccc(-c2nc3cc4c(cc3cc2CN(C(=O)c2csc(C)n2)C2CC2)CCC4)c1OC | 0.6%
O=C(CCNS(=O)(=O)c1ccc2c(c1)CCCC(=O)N2)NCc1ccccc1Cl | -1.5%
CCc1cc2c(-c3ccccc3)cc(=O)oc2c2c1OCN(Cc1ccc(C)cc1)C2 | 2.1%
O=C(NCc1ccccn1)c1cnn(-c2nccc(-c3cc4ccccc4o3)n2)c1C1CC1 | 5.3%
Cc1cc(C)c(NC(=O)Cn2c(=O)n(Cc3ccco3)c(=O)c3ccc(C(=O)NC4CCCC4)cc32)c(C)c1 | 2.8%
Cn1c(=O)oc2cc(S(=O)(=O)N3CCCC(C(=O)NCc4ccc(F)cc4)C3)ccc21 (stereo unspecified) | -0.5%
Cc1cnc2ccccc2c1/C=C/c1ccc(N)cc1 | 4.5%
Oc1ccccc1-c1nc(/C=C/c2ccccc2Cl)no1 | 2.4%
O=C(NC1CC(=O)N(c2cccc(F)c2)C1)c1ccc(S(=O)(=O)N2CCOCC2)cc1 (stereo unspecified) | 3.2%
O=C(COc1ccccc1F)Nc1ccc2nc(SCC(=O)N3CCOCC3)sc2c1 | 1.0%
Cc1cc(C)c(NC(=O)CCC(=O)N2Cc3ccccc3Oc3ncccc32)c(C)c1 | 1.9%
COC(=O)c1cc2oc3ccccc3c2n1Cc1nc(-c2ccc(Cl)cc2)oc1C | 0.7%
COc1ccc(C2Nc3ccccc3C(=O)N2Cc2ccccc2)cc1COc1ccc([N+](=O)[O-])cc1 (stereo unspecified) | 1.2%
CC(C)OCCCNC(=O)c1ccc2c(=O)n(CCc3ccccc3)c(=O)[nH]c2c1 | 2.3%
Cc1cccc(CNC(=O)c2cnn(-c3nccc(-c4cccs4)n3)c2C2CC2)n1 | -0.5%
Cc1ccccc1CNC(=O)c1ccc2[nH]c(C)c(C)c2c1 | -0.3%
CCc1ccccc1NC(=O)N1CCC2(CC1)Oc1ccccc1C(=O)N2Cc1ccccc1F | 0.6%
COC(=O)c1ccccc1NC(=O)c1ccc(-c2nc(COc3ccccc3)c(C)o2)cc1 | 1.5%
Cc1nc2ccccc2nc1C | 0.2%
CCOc1ccccc1CNC(=O)c1cnc2sc(N(CC)CC)nn2c1=O | 0.7%

Some values from the entries so far:
In PINK1 expr mod, CCOC(=O)C(CC)Sc1nnc2[nH]c(=O)cc(C)n12 (stereo unspecified) has the entry 25%
In PINK1 expr mod, CN1CCN(c2ccc(-c3nc(-c4ccccc4)no3)cc2[N+](=O)[O-])CC1 has the entry 0.1%

The list goes on.
SMILES | PINK1 expr mod
COC(=O)c1c(-c2cccs2)csc1NC(=O)c1ccc(C(C)C)cc1 | 0.1%
CCN(CC)CCn1c(=N)n(CC(O)COc2ccccc2C)c2ccccc21 (stereo unspecified) | -1.5%
CCCCC(CC)CNC(=O)CN1C(=O)CSc2ccc(S(=O)(=O)N3CCOCC3)cc21 (stereo unspecified) | -0.4%
COc1ccc(CCNC(=O)c2ccc3c(c2)c(C)c(C)n3Cc2ccc(F)cc2)c(OC)c1OC | -0.5%
Cc1cc(O)c(C(c2cccc(F)c2)N2CCN(c3ccccc3)CC2)c(=O)n1Cc1ccco1 (stereo unspecified) | 0.8%
COc1ccc(N2CCN(C(=O)c3cn(C)c4ccc(S(=O)(=O)N(C)C5CCCCC5)cc4c3=O)CC2)cc1 | 2.0%

Ordered by SMILES length (ascending): 6 of the compounds above.
SMILES | PINK1 expr mod
CCOc1ccccc1CNC(=O)c1cnc2sc(N(CC)CC)nn2c1=O | 0.7%
CCN(CC)CCn1c(=N)n(CC(O)COc2ccccc2C)c2ccccc21 (stereo unspecified) | -1.5%
COC(=O)c1c(-c2cccs2)csc1NC(=O)c1ccc(C(C)C)cc1 | 0.1%
COC(=O)c1ccccc1NC(=O)c1ccc(-c2nc(COc3ccccc3)c(C)o2)cc1 | 1.5%
Cc1cc(O)c(C(c2cccc(F)c2)N2CCN(c3ccccc3)CC2)c(=O)n1Cc1ccco1 (stereo unspecified) | 0.8%
COc1ccc(CCNC(=O)c2ccc3c(c2)c(C)c(C)n3Cc2ccc(F)cc2)c(OC)c1OC | -0.5%
